# From PubChem BioAssay
# GIV-Gai inh: blocks GIV peptide binding to rat Galpha-i3 | hit rate 0.42% among 210,000 | percent of control (FP), % (concentration not given with the values) | Galpha-i3/FITC-GIV peptide fluorescence polarization, 90 min; active compounds read low; scaled: aluminum fluoride 0%, vehicle 100%;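 active means replicate mean at 85% of control or lower, very high polarization wells dropped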;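 further: wells of about 15 µL received 100 nL stock; the first replicate is given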
# Target sequence (P08753 whole entry, looked up): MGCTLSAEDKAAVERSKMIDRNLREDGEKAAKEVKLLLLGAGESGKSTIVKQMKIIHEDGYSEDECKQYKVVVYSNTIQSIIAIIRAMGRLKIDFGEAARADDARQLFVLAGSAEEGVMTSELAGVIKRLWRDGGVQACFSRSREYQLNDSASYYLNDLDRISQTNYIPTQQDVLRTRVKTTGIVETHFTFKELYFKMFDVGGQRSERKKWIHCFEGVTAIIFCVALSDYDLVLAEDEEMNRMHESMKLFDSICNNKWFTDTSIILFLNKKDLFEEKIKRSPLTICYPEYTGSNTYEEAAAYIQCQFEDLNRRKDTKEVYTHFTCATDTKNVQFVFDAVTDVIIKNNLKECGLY
# Sa growth inh: S. aureus growth inhibition | S. aureus RN4220 growth, OD600, 20 h, 42 °C; active compounds read low | relative growth, % (test concentration not listed) | hit rate 0.53% among 170,000;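 active means growth at 42 °C up to 50% and 20 or more points under that at 30 °C, or under 10% at both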;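 further: 300 nL library stock went into each well; scaled to the means of positive and negative controls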
# HCMV NEC inh: inhibitors of HCMV UL50-UL53 nuclear egress complex interaction; hit rate 0.15% among 190,000; HTRF UL50-UL53 interaction, normalized percent inhibition; AID 1918969; inhibition, % (no concentration beside the values);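 active means both replicates at 50% or more, plus weaker picks with an unusually low signal ratio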;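 further: stock transfer was 100 nL into about 20 µL; 0% = negative control wells and 100% = wells with untagged competitor protein; inactives centre near -12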
# Sa growth inh second temp: recorded beside Sa growth inh, whose call it bears; relative growth, %; measured here: growth at 30 °C;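 optical density after 20 h as mean of two plates; 100% = untreated growth and lower means inhibition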
# * hit, by the source's call; . = not tested or not shown; & = joins results of further samples.
SMILES,GIV-Gai inh,Sa growth inh,Sa growth inh second temp,HCMV NEC inh
CCC(C)Sc1nc2c(cnn2-c2ccc(F)cc2)c(=O)[nH]1 (configuration not stated),98,.,.,-29
Cc1ccc(N=C2NC(=O)C(Cc3cccc(Cl)c3)S2)cc1 (configuration not stated),111,.,.,0
O=c1c(-c2cc(F)ccc2F)c(O)nc2n1CCCC2,108,87,87,-32
O=S(=O)(/N=C/c1ccco1)c1cccs1,106,104,93,4
CCn1c(=O)c(=O)n(CC)c2cc(S(=O)(=O)NCc3cccs3)ccc21,100,109,84,.
CN(C)C(=O)N1CCN(S(=O)(=O)c2ccccc2)C1,97,111,82,4
CC1CC(NC(=O)/C(C#N)=C/c2ccc[nH]2)CC(C)(C)C1 (configuration not stated),103,94,92,-35
COc1cc(NC(=O)CCNS(=O)(=O)c2ccc3c(c2)CCN3C(=O)C2CC2)cc(OC)c1,102,100,81,.
O=C(NCC(c1ccco1)N1CCCCC1)C1(c2ccccc2)CC1 (configuration not stated),.,106,106,-13
O=C(c1cc2n(n1)CCCN(Cc1ccccc1)C2=O)N1CCN(C2CCCCC2)CC1,102,.,.,-14
COCCn1c(C)cc(-c2csc(NCc3ccc(C)cc3)n2)c1C,.,116,56,-25
Cc1nc(SCSc2nc3ccccc3s2)nc2c1CCCC2,106,68,95,.
COc1cc(OC)cc(C(=O)NCCc2csc(-c3ccc(F)cc3)n2)c1,102,.,.,-27
Cc1c(C(=O)NN2CCN(C)CC2)oc2ccccc12,100,121,103,-10
Cc1cc(=O)oc2c1c(C)nn2C,108,91,85,-24
CCOc1ccc(N(CC)C(=O)NC2CC(=O)N(c3ccc(OC)cc3)C2)cc1 (configuration not stated),103,84,80,-32
COCCCNC(=O)CSc1nc(-c2ccc(OC)c(OC)c2)[nH]c1-c1ccc(F)cc1,101,100,83,-7
O=C(Nc1cc(-c2ccccc2F)nn1-c1ccccc1)c1ccccc1Br,101,102,90,.
CCc1ccc(-c2nc3ccccn3c2CNCc2cccc(OC)c2)cc1,104,.,.,-2
Cc1ccc(C)c(N2CCN(CCCNC(=O)c3nc(-c4cccnc4)no3)CC2)c1,104,98,81,-22
Cc1cc(C(=O)Nc2ccc(CC(=O)O)cc2)cs1,107,119,106,-10
COC1(OC)c2nonc2C(OC)(OC)c2nonc21,101,90,78,-2
O=C(COc1ccc(Br)cc1)N1CCOCC1,99,99,113,10
COCCn1c(CNC(=O)c2cccc(C)c2)nc2cccnc21,105,113,85,.
O=C(c1cccc2c1-c1ccccc1C2)N1CCCCC1,103,95,86,-20
# Carrying on.
SMILES,GIV-Gai inh,Sa growth inh,Sa growth inh second temp,HCMV NEC inh
Cc1nn(C)c(C)c1S(=O)(=O)N1CCN(C(=O)c2cncc(Br)c2)CC1,102,.,.,-12
Cc1cccc(-c2nnc(SCC(=O)N3CCCc4ccccc43)o2)c1,103,105,83,-5
CCOC(=O)CC(NC(=O)Cn1nnc(-c2ccc(Cl)cc2)n1)c1ccc(OC)cc1 (configuration not stated),103,111,95,-1
O=C(CN1CCOCC1)N1N=C(c2c(-c3ccccc3)c3cc(Br)ccc3[nH]c2=O)CC1c1ccccc1 (configuration not stated),98,.,.,-9
Cc1noc(C)c1-c1nc(CSc2ccccc2N)no1,104,107,97,-4
COc1cc2ccccc2cc1C(=O)Nc1ccccc1-c1nc2ccccc2[nH]1,102,.,.,-8
Cc1nc2sccn2c(=O)c1S(=O)(=O)NCCc1ccccc1,102,92,82,.
CN(C)C(=O)n1c(SCc2ccccc2)nnc1-c1ccc(C(C)(C)C)cc1,99,101,91,.
COc1ccc(-c2cc(C(F)(F)F)nc(NCCc3ccccc3)n2)cc1OC,98,108,90,4
Cc1cc(C(=O)CO/N=C/c2ccco2)c(C)n1C,.,68,90,-61
COc1ccc(NS(=O)(=O)c2ccc3c(c2)CCN3C(=O)C2CC2)cc1OC,102,110,85,-17
COc1ccc(Cn2c(C(=O)O)c(CNCc3ccc(C)o3)c3ccc(OC)cc32)cc1,103,120,94,.
O=C1CN(C(=O)CSc2ncnc3ccccc23)c2ccccc2N1,.,103,97,-26
CC1CCc2nc3ccc4ccccc4c3c(-c3ccc(O)c(O)c3)c2C1 (configuration not stated),.,131,100,-8
O=C(OCC(=O)N1CCCCC1)c1cccs1,.,96,100,8
CCNc1nc(Oc2ccc(C(=O)OC)cc2)nc(SC)n1,100,120,83,.
O=C(Nc1ccc2c(c1)OCCO2)c1cccc(C(=O)Nc2ccc3c(c2)OCCO3)n1,101,.,.,-9
CCN(CC)CCCNC(=O)CN1C(=O)CCn2nc(-c3cn(C)c4ccccc34)cc21,103,85,86,.
Cc1ccccc1NC(=O)CSc1nc(-c2cccs2)nc2cc(=O)[nH]n12,96,63,88,.
Cc1ccc(C)c(N2CCN(S(=O)(=O)c3ccc4[nH]c(=O)ccc4c3)CC2)c1,102&109,89,89,-24
COC(=O)c1ccc(COC(=O)c2ccc3c(c2)S(=O)(=O)N=C2CCCCCN23)o1,.,87,93,-12
CCC(C)NC(=O)c1cc(-c2ccc(O)cc2)on1 (configuration not stated),102,105,74,-10
Cc1ccc(CC(=O)[C@@H]2[C@@H](c3ccoc3)C(C#N)(C#N)[C@H]3C=Cc4ccccc4N23)cc1,.,77,67,-26
N#Cc1c(N2CCOCC2)nsc1-c1ccc(C(F)(F)F)cc1,98,107,103,-1
CCCNc1cc(C)nc2c(-c3ccc(F)cc3)c(C(F)(F)F)nn12,99,.,.,-26
# Other results.
SMILES,GIV-Gai inh,Sa growth inh,Sa growth inh second temp,HCMV NEC inh
CCc1ccc(NC(=O)c2sc(-n3nc(C)c(CCC(C)C)c3C)nc2C)cc1,104,100,95,21
CSC(=NCc1ccco1)NC#N,104,115,76,1
O=C(Nc1ccccc1C(=O)NCc1cccs1)c1ccccc1Cl,96,103,76,.
Cc1nc(-n2cccc2)sc1C(=O)N/N=C/c1ccccc1Cl,105,93,83,-10
Fc1ccc(CN2CCN(Cc3c[nH]c4ccccc34)CC2)cc1,101,.,.,8
CCc1nc2nc(C)c(NC(=O)Nc3ccc4c(c3)OCCO4)c(=O)n2[nH]1,101,.,.,4
Cc1c(C(=O)N/N=C/c2ccccc2)sc(=S)n1C,102,104,97,-7
O=C1CN(c2ccccc2)CC(=O)N1,100,98,105,-12
CCc1ccc(CNC(=O)c2ccc(NC(=O)N3CC(C)Sc4ccccc43)cc2)cc1 (configuration not stated),110,115,77,-6
CCS(=O)(=O)Cc1cccs1,104,102,93,-16
CN1C(=O)/C(=C/c2cccn2C(C)(C)C)C(=O)NC1=S,100,77,60,-4
O=C(NCc1ccco1)C1(c2ccccc2)CCCC1,103,103,100,-4
CNC(=O)c1c[nH]c2ccc(S(=O)(=O)Nc3cccc(Cl)c3C)cc2c1=O,100,100,79,-20
CCOC(=O)c1cccc(NC(=O)NCc2noc3ccccc23)c1,109,108,109,16
O=C(O)C1Cc2c([nH]c3ccccc23)C2(CCCCC2)N1 (configuration not stated),104,100,89,-2
Cn1c(=O)n(C)c2cc(N3CCOCC3)c(N)cc21,106,95,99,-11
CSCCC1C(=O)N(N)C2(C)CC(C)(C)NC(=S)N12 (configuration not stated),101,100,97,.
O=C1NN(c2ccccc2)C(=O)/C1=C/c1coc2ccccc2c1=O,109,96,94,.
O=C1CCCCCN1C(=O)c1ccccc1,.,97,94,-10
O=C(COc1ccccc1)Nc1c(-c2ccc(F)cc2)nc2ccccn12,104,.,.,-23&11
CCOc1ccc2nc(SCC(=O)c3ccc(C)s3)sc2c1,97,126,107,-17
CCOC(=O)c1oc2ccccc2c1COC(=O)CNS(=O)(=O)c1ccc2c(c1)OCCCO2,.,93,85,-20
CSc1ncc(C(=O)N(C)Cc2ccc3c(c2)OCO3)n1-c1ccccc1,.,100,95,1
COc1c(C)c2c(c(O)c1C/C=C(\C)CCC(=O)OCCN1CCOCC1)C(=O)OC2,105,103,83,-2
COc1cccc(NC(=O)COc2ccc(N3CC(C(=O)NCC(C)C)CC3=O)cc2)c1 (configuration not stated),104,89,83,.

# 7 of the compounds above, with values under each structure:
# Values run as follows: GIV-Gai inh | Sa growth inh | Sa growth inh second temp | HCMV NEC inh
CSC(=NCc1ccco1)NC#N
 : 104 | 115 | 76 | 1
O=C(Nc1ccccc1C(=O)NCc1cccs1)c1ccccc1Cl
 : 96 | 103 | 76 | .
Cc1nc(-n2cccc2)sc1C(=O)N/N=C/c1ccccc1Cl
 : 105 | 93 | 83 | -10
Fc1ccc(CN2CCN(Cc3c[nH]c4ccccc34)CC2)cc1
 : 101 | . | . | 8
CCc1nc2nc(C)c(NC(=O)Nc3ccc4c(c3)OCCO4)c(=O)n2[nH]1
 : 101 | . | . | 4
Cc1c(C(=O)N/N=C/c2ccccc2)sc(=S)n1C
 : 102 | 104 | 97 | -7
O=C1CN(c2ccccc2)CC(=O)N1
 : 100 | 98 | 105 | -12

# Compounds shown so far containing bromine (four):
SMILES,GIV-Gai inh,Sa growth inh,Sa growth inh second temp,HCMV NEC inh
O=C(Nc1cc(-c2ccccc2F)nn1-c1ccccc1)c1ccccc1Br,101,102,90,.
O=C(COc1ccc(Br)cc1)N1CCOCC1,99,99,113,10
Cc1nn(C)c(C)c1S(=O)(=O)N1CCN(C(=O)c2cncc(Br)c2)CC1,102,.,.,-12
O=C(CN1CCOCC1)N1N=C(c2c(-c3ccccc3)c3cc(Br)ccc3[nH]c2=O)CC1c1ccccc1 (configuration not stated),98,.,.,-9

# The listing continues:
SMILES,GIV-Gai inh,Sa growth inh,Sa growth inh second temp,HCMV NEC inh
CCOC(=O)c1c(C)[nH]c(C(=O)N2CCC(C(C)C(=O)NCc3ccc(OC(C)C)cc3)CC2)c1C (configuration not stated),108,.,.,-11
Cc1cc(C)nc(N2CCC(C(N)=O)CC2)n1,106&108,108,99,12&8
CN(C1CCCCC1)S(=O)(=O)c1ccccc1NC(=O)Cn1cnc2ccccc21,.,88,84,-30
CCOc1ccc2oc(C)c(C(=O)Nc3cc(C(=O)OC)ccc3C(=O)OC)c2c1,102,.,.,-4
CCCCCNC(=O)C1CCC(Cn2c(=O)c3sccc3n(CC(=O)NCc3cccc(OC)c3OC)c2=O)CC1 (configuration not stated),103,97,91,-84
CCn1ccc2cc(S(=O)(=O)N3CCC(C(=O)NCC(C)c4ccccc4)CC3)ccc21 (configuration not stated),104,95,90,.
Cc1ccc(CNC(=O)c2cc3c(=O)[nH]c4ccccc4c3s2)cc1,94,91,88,3
Cc1c(C#N)c(O)n(CCO)c(=O)c1N=Nc1cccc(C(=O)O)c1,124,105,101,-182
COC(=O)/C=C1\SC(=NC(=O)c2cccc(Cl)c2)NC1=O,98,118,60,-14
COC(=O)/C=C1\NC2CCCCC2NC1=O (configuration not stated),101,91,84,.
CCOc1ccccc1CN1C(=O)c2ccccc2C1C(=O)NC1CCCCCC1 (configuration not stated),98,96,88,4
CCCS(=O)(=O)NCCc1csc2nc(-c3ccc(OC)cc3)nn12,101,121,91,.
CC(=O)NCc1ccc(C(=O)COC(=O)c2ccc(S(=O)(=O)N3CC(C)CC(C)C3)cc2)o1 (configuration not stated),.,88,85,-12
CC(C)(C)NC(=O)CN1CCN(C(=O)CSc2nnc3c(n2)Nc2ccccc2S3)CC1,.,107,70,-99
O=C(c1c2c(nc3ccccc13)CCCC2)N1CCCCC1,.,108,86,-24
CC(C)NS(=O)(=O)Cc1ccccc1,.,105,88,-2
CN(C)/C=N/S(=O)(=O)c1ccc(-n2nc(C(F)(F)F)cc2-c2cccs2)cc1,101,87,91,1
COc1ccc(CCNC(=O)c2ccnc(C(C)(C)C)c2)cc1OC,104,104,90,13
CC(=O)N1CCc2cc(Br)cc(S(=O)(=O)CCC(=O)N3CCN(c4ccccc4)CC3)c21,96,103,85,-17
CC[N+](C)(CC)C/C=C1/COCO1,.,121,82,8
CCN(Cc1ccccc1)c1ncc(NS(=O)(=O)c2ccc(C3CCCCC3)cc2)cc1C(=O)O,109,.,.,-40
CN(C(=O)CCc1ccccc1)c1nnc(-c2ccncc2)s1,102,141,97,-2
CCNC(=O)c1nc(N2CCOCC2)c2ccccc2n1,104,.,.,-21
O=C1NC2(c3ccccc3)NC(=O)NC2(c2ccccc2)N1 (configuration not stated),.,70,90,-11
CN1CCN(CC(=O)NCCc2ccc(F)cc2)CC1,96,112,85,-17
# Remaining list, next part
SMILES,GIV-Gai inh,Sa growth inh,Sa growth inh second temp,HCMV NEC inh
CN(C)C(=O)c1cc(-c2ccccc2)nc2ccccc12,100,104,106,-4
COc1ccc(CCN2CN=C(NC#N)NC2)cc1OC,99,81,80,-27
CC(C)CNC(=O)CSc1ccc(Cl)cc1,103,97,99,5
CCOC(=O)Cn1c(=O)n(Cc2ccc(C)cc2)c(=O)c2cccnc21,106,119,81,-3
Nc1ccc2c(c1)nc1n2CCCCC1,.,84,94,-29
Cc1cc(C)c(NC(=O)CSc2nc3ccccc3c3nc(-c4ccccc4)nn23)c(C)c1,110,117,92,.
S=c1[nH]c(-c2ccccc2)cn1/N=C/c1ccc2c(c1)OCCO2,.,109,89,-20
CO[C@H]1/C=C/O[C@@]2(C)Oc3c(C)c(O)c4c(O)c(c(C=NN5CCN(C)CC5)c(O)c4c3C2=O)NC(=O)/C(C)=C\C=C\C(C)[C@H](O)[C@@H](C)[C@@H](O)[C@@H](C)[C@@H](OC(C)=O)[C@@H]1C (some centres not stated),.,1.3*,1.6*,-103
CCOC(=O)CC1=CC(=O)N(Cc2cccc(Cl)c2)c2ccccc2N1,106,.,.,-37
